Source: PubChem BioAssay
UCH37 DUB inh = inhibitors of human UCH37 deubiquitinase, primary screen, biochemical, Ub-AMC cleavage, fluorescence | Ubiquitin carboxyl-terminal hydrolase isozyme L5 (Homo sapiens), Q9Y5K5 | purified proteasome/UCH37 | inhibition, % (concentration not given with the values) | hit rate 0.33% among 330,000;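 active means mean of two replicates above 20%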;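 further: 0% = compound-free wells with enzyme and 100% = wells lacking proteasome; stock transfer was 100 nL into about 20 µL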
Target sequence (Q9Y5K5 whole entry, looked up): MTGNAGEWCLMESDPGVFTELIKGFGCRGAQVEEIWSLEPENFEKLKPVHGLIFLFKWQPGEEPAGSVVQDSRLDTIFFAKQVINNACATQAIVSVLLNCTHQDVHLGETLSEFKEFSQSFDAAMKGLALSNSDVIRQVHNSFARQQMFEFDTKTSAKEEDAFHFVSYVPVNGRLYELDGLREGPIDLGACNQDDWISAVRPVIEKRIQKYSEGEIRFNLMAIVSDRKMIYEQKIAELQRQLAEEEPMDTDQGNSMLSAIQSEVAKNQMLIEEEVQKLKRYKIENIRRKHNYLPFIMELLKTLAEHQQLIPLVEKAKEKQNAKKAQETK
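Test system – human UCH37 enzyme supplied as purified proteasome complex · Incubation – 30 min preincubation with enzyme, 25 min cleavage at room temperature · Detection – AMC fluorescence from Ub-AMC cleavage, excitation 355 nm, emission 460 nm · Benchmarks – no-proteasome wells (full inhibition) and compound-free wells (no inhibition)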
Vif TR-FRET = inhibitors of Vif binding to APOBEC3G peptide, primary screen, biochemical, TR-FRET, GST-Vif 1-94, biotin-A3G peptide, dose response retest (AID 1117319). TR-FRET GST-Vif / biotin-A3G peptide binding; higher % means a stronger effect; test concentration not given here; strong numbers were not always called active. inhibition, %; hits with a dose series show IC50 in µM. hit rate 0.57% among 260,000. Virion infectivity factor (Human immunodeficiency virus type 1 group M subtype B (isolate …;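 active means above the screen mean plus three standard deviations and confirmed in dose response; inconclusive means results disagree or hit not tested in dose response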;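 further: Vif residues 1-94 fused to GST binding biotinylated APOBEC3G peptide 110-148; 0% = full assay without inhibitor and 100% = GST in place of GST-Vif; retest series ran down from 100 µM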
RanGTP-Impb inh = inhibitors of RanGTP-importin-beta interaction, primary screen, biochemical, FRET, CFP-Ran, YFP-importin-beta, homogeneous; hit rate 1.1% among 300,000; cell-free CFP-Ran/YFP-importin-beta FRET ratio; Ran GTPase (GTP-bound) - importin-beta complex; inhibition, % (test concentration not listed);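 active means most replicates above 15%; inconclusive means exactly half above 15%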;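 further: 0% = DMSO wells and 100% = Ran loaded with GDP instead of GTP; wells of about 40 µL received 100 nL stock; the first replicate is given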
FGF22 binding = binders of human FGF22 protein, primary screen, FGF22 synaptogenesis inhibitor project, biophysical, thermal shift, single point. calls only at 9.99 µM. Fibroblast growth factor 22 (Homo sapiens), Q9HCT0. recombinant FGF22 thermal shift, SYPRO orange fluorescence; percent of sucrose octasulfate shift, DMSO zero. hit rate 1.5% among 340,000;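 active means melting point raised past a set limit in the mean and every replicate; inconclusive means no clear call; three in four hits are not shown here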
Target sequence (Q9HCT0 whole entry, looked up): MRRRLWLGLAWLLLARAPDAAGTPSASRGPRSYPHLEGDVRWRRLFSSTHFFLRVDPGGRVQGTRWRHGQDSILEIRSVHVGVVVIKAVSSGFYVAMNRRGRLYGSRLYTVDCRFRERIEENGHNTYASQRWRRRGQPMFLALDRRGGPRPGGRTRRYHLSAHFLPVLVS
HNF4A DNA FP = change in binding of human HNF4A to DNA, primary screen, biochemical, fluorescence polarization, FITC-DNA | activity change, % at 10 µM | 1 h | Hepatocyte nuclear factor 4-alpha (Homo sapiens), P41235 | hit rate 0.3% among 360,000; in the data active means activity change above about 30%, passing the limit was not always enough;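 further: controls were the assay level and a saturating level of protein; the project sought stronger binding though the title names inhibitors; some compounds called inactive have numbers as strong as hits; positive values seem to mean higher polarization but the record does not say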
E coli growth = E. coli growth inhibition, primary screen, OD600; Escherichia coli growth, 23 h; active compounds read low; OD600 absorbance (test concentration not listed); hit rate 0.21% among 330,000;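 active means OD600 absorbance below the run mean of sample wells minus 3.6 SD, in any replicate, cut at about 0.56 in these data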;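 further: stock transfer was 300 nL into about 60 µL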
AF4-AF9 inh = inhibitors of AF4 peptide binding to AF9, primary screen, biochemical, AlphaScreen, biotin-AF4 peptide, FLAG-AF9, single point | AID 651704, 2012 | Protein AF-9 (Homo sapiens), P42568 | hit rate 0.47% among 350,000 | inhibition, % at 10 µM;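 active means every replicate reaching a set inhibition limit, whatever the replicate mean, cut at about 25% in these data; inconclusive means mean inhibition reaches that limit but some replicates miss it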;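 further: 0% = plate neutral control median and 100% = total signal loss; the record names both 10 and 1 µM as test concentration; the first replicate is given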
Target sequence (P42568 whole entry, looked up): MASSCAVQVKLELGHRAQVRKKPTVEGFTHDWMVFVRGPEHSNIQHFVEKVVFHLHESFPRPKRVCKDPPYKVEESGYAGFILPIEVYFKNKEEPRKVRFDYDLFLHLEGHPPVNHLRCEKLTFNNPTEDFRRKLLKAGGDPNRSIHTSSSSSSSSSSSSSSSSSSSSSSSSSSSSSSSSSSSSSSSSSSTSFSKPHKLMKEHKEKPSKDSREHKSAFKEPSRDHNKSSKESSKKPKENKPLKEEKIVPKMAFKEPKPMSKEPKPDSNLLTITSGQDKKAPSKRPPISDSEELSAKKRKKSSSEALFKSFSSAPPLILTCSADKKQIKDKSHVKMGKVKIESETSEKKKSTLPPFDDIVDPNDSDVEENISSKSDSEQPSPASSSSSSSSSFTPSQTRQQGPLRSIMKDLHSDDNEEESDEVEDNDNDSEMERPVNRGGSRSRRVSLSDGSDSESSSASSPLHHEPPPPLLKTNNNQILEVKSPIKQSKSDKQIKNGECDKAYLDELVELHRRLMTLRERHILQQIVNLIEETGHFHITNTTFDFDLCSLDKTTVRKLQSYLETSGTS
* = called active by the depositor; & = joins results of further samples.

What do the screens show for `CCCN1C(=O)C(Cc2nc3ccccc3c(=O)n2C)c2ccccc21` (stereo not drawn)?
UCH37 DUB inh: 0.1; Vif TR-FRET: -1.6%; RanGTP-Impb inh: 2.2; HNF4A DNA FP: 0.6; E coli growth: 0.75

How did CC(=O)N(c1ccccc1)c1ccc([N+](=O)[O-])cc1[N+](=O)[O-] do in these assays?
UCH37 DUB inh: 4.9; Vif TR-FRET: 1.3%; RanGTP-Impb inh: 0.6; HNF4A DNA FP: 1.1; E coli growth: 0.62

How did CCOC(=O)Cc1csc(NC(=O)c2ccc(C)cc2)n1 do in these assays?
UCH37 DUB inh: 3.7; Vif TR-FRET: -1.5%; RanGTP-Impb inh: 2.1; FGF22 binding: inactive; HNF4A DNA FP: -5.2; E coli growth: 0.683; AF4-AF9 inh: -0.1

What do the screens show for `Clc1ccc(-c2cc3ccccc3nc2N2CCOCC2)cc1`?
UCH37 DUB inh: -54.3; Vif TR-FRET: 10.3%; RanGTP-Impb inh: -2.3; FGF22 binding: inactive; HNF4A DNA FP: 1.4; E coli growth: 0.696; AF4-AF9 inh: -19.2

Results for CN(Cc1c(C(=O)N/N=C/c2ccccc2)nnn1-c1nonc1N)C1CCCCC1 ?
RanGTP-Impb inh: 3.2; FGF22 binding: inactive; HNF4A DNA FP: -0.7; AF4-AF9 inh: -1.0

What do the screens show for `CC1CCCN(S(=O)(=O)c2cccc(C(=O)NCc3ccco3)c2)C1` (stereo not drawn)?
UCH37 DUB inh: 2.3; Vif TR-FRET: inconclusive; FGF22 binding: inactive; HNF4A DNA FP: 3.4; E coli growth: 0.656; AF4-AF9 inh: 1.6

What do the screens show for `COc1ccc(C(=O)NCCc2nnc3ccc(SCC(=O)N4CCCC4)nn23)cc1`?
UCH37 DUB inh: 3.7; RanGTP-Impb inh: -3.3; FGF22 binding: inactive; HNF4A DNA FP: 2.0; E coli growth: 0.711; AF4-AF9 inh: 4.8

What do the screens show for `O=C(NCc1nnnn1-c1ccc(F)c(F)c1)c1ccc(S(=O)(=O)N2CCOCC2)cc1`?
UCH37 DUB inh: 2.2; Vif TR-FRET: -3.8%; RanGTP-Impb inh: inconclusive; FGF22 binding: inactive; HNF4A DNA FP: -0.3; E coli growth: 0.701; AF4-AF9 inh: -21.4

What do the screens show for `N#Cc1c(N)[nH]c2ccc(Sc3ccccc3)cc12`?
Vif TR-FRET: -4.0%; FGF22 binding: inactive; HNF4A DNA FP: 4.1; AF4-AF9 inh: 0.5

Results for CCOc1ccc(CCNC(=O)CN(C)S(=O)(=O)c2cccs2)cc1OCC ?
RanGTP-Impb inh: 6.3; FGF22 binding: inactive; HNF4A DNA FP: -0.2; AF4-AF9 inh: -0.2

Results for O=C(Nc1cccc(-c2cscn2)c1)C1CCN(Cc2ccsc2)CC1 ?
UCH37 DUB inh: 3.2; Vif TR-FRET: -1.1%; RanGTP-Impb inh: 2.3; FGF22 binding: inactive; HNF4A DNA FP: 6.5; E coli growth: 0.694; AF4-AF9 inh: 2.8

Results for CCCCSC1=N/C(=C/c2ccsc2)C(=O)N1c1ccccc1 ?
UCH37 DUB inh: -45.7; RanGTP-Impb inh: -0.6; FGF22 binding: inactive; HNF4A DNA FP: 0.0; E coli growth: 0.69; AF4-AF9 inh: 5.3

Results for COc1ccc(-c2cc(C)no2)cc1S(=O)(=O)N1CCOc2ccccc21 ?
UCH37 DUB inh: 5.6; RanGTP-Impb inh: -9.4; FGF22 binding: inactive; HNF4A DNA FP: -2.4; E coli growth: 0.681; AF4-AF9 inh: -2.1

Results for CCN(CC)CCNc1nc(SC)nc2sc3c(c12)CCN(C)C3 ?
Vif TR-FRET: -1.0%; RanGTP-Impb inh: 1.1; FGF22 binding: inactive; HNF4A DNA FP: 7.7; AF4-AF9 inh: 10.1

How did CCN(CC)S(=O)(=O)c1cccc(NC(=O)c2ccc(Br)cc2)c1 do in these assays?
UCH37 DUB inh: 1.1; RanGTP-Impb inh: -1.0; FGF22 binding: inactive; HNF4A DNA FP: 2.5; E coli growth: 0.708; AF4-AF9 inh: -1.8

What do the screens show for `CC1(C)C(=O)OC(c2ccccc2)C(C)(C)C1=O` (stereo not drawn)?
UCH37 DUB inh: 2.3; Vif TR-FRET: inconclusive; RanGTP-Impb inh: 4.9; FGF22 binding: inactive; HNF4A DNA FP: -6.3; E coli growth: 0.694; AF4-AF9 inh: 0.0

What do the screens show for `Cc1[nH]nc(SCC(=O)NC2CCCCC2)c1[N+](=O)[O-]`?
UCH37 DUB inh: 2.9; Vif TR-FRET: 4.7%; RanGTP-Impb inh: 3.8; FGF22 binding: inactive; HNF4A DNA FP: 4.7; E coli growth: 0.698; AF4-AF9 inh: -2.1

Results for Cc1ccccc1-c1cnc(C(O)c2ccc(F)cc2C)[nH]1 (stereo not drawn) ?
FGF22 binding: inactive; HNF4A DNA FP: 0.7; AF4-AF9 inh: 4.1

How did COc1ccc(CC(=O)Nc2nccs2)cc1OC do in these assays?
UCH37 DUB inh: 2.8; Vif TR-FRET: 0.5%; RanGTP-Impb inh: 0.5; HNF4A DNA FP: 6.2; E coli growth: 0.663

What do the screens show for `CC(C)Nc1nc(NC(N)=S)nc(NC(C)(C)C)n1`?
UCH37 DUB inh: 3.8; Vif TR-FRET: 18.7%; RanGTP-Impb inh: 7.2; HNF4A DNA FP: 1.6; E coli growth: 0.678; AF4-AF9 inh: -1.2

How did Cc1nn(Cc2noc(C(=O)NCCc3ccccn3)n2)c(C)c1Br do in these assays?
UCH37 DUB inh: 5.6; RanGTP-Impb inh: -1.2; FGF22 binding: inactive; HNF4A DNA FP: -3.0; E coli growth: 0.674; AF4-AF9 inh: -4.5

How did COc1ccc2nc(SCc3ccccc3)nc(C)c2c1 do in these assays?
UCH37 DUB inh: -25.3; Vif TR-FRET: 9.9%; RanGTP-Impb inh: -3.9; FGF22 binding: inactive; HNF4A DNA FP: 2.2; E coli growth: 0.648; AF4-AF9 inh: -14.1

How did O=[N+]([O-])c1ccc(OCc2nnc(-c3ccccc3)o2)cc1 do in these assays?
UCH37 DUB inh: 4.7; Vif TR-FRET: -4.8%; FGF22 binding: inactive; HNF4A DNA FP: -3.6; E coli growth: 0.723; AF4-AF9 inh: 1.2

What do the screens show for `COc1ccccc1CNc1nc2nc(C)c(C)c(=O)n2[nH]1`?
UCH37 DUB inh: 1.5; Vif TR-FRET: inconclusive; RanGTP-Impb inh: inconclusive; HNF4A DNA FP: 0.8; E coli growth: 0.69

What do the screens show for `CCOc1cccc(CNCCNC(=O)c2nonc2N)c1`?
UCH37 DUB inh: 3.7; Vif TR-FRET: 73.2%; RanGTP-Impb inh: 4.5; HNF4A DNA FP: 3.5; E coli growth: 0.654

What do the screens show for `COc1cccc(C(=O)Nc2cc(C(=O)NCc3ccc(C)cc3)ccc2N2CCC3(CC2)CC(c2cccc(Br)c2)=NO3)c1`?
UCH37 DUB inh: -0.7; FGF22 binding: inactive; HNF4A DNA FP: 17.2; E coli growth: 0.707; AF4-AF9 inh: 0.5

Results for O=C(Nc1cc(=O)c2ccccc2o1)N1CCCCC1 ?
UCH37 DUB inh: -1.4; Vif TR-FRET: 3.7%; HNF4A DNA FP: 2.6; E coli growth: 0.621

How did O=C(CCn1c(=O)c2cccn2c2ccccc21)Nc1ccc(F)cc1 do in these assays?
UCH37 DUB inh: 0.9; RanGTP-Impb inh: -1.2; FGF22 binding: inactive; HNF4A DNA FP: 8.2; E coli growth: 0.692; AF4-AF9 inh: 2.0

How did C#CCOCCOCCOCCNc1nc(N2CCN(C(=O)Cn3cc(CC(C)O)nn3)CC2)nc(N2CCN(C(=O)[C@H](C)n3cc(CCCN=C(N)N)nn3)CC2)n1 (stereo partly drawn) do in these assays?
UCH37 DUB inh: 1.9; Vif TR-FRET: 9.6%; RanGTP-Impb inh: -2.4

Results for Cc1ccc(CNc2ccc(O)cc2)cc1 ?
UCH37 DUB inh: -7.8; Vif TR-FRET: >50.9µM*; RanGTP-Impb inh: 1.2; HNF4A DNA FP: 1.2; E coli growth: 0.714

What do the screens show for `COc1ccc(Cl)cc1NC(=S)N(Cc1cccnc1)Cc1ccco1`?
UCH37 DUB inh: 3.0; Vif TR-FRET: -2.5%; RanGTP-Impb inh: -1.9; FGF22 binding: inactive; HNF4A DNA FP: 1.2; E coli growth: 0.706; AF4-AF9 inh: 3.6

What do the screens show for `O=C(c1ccc(F)cc1)C1CCN(C(=O)c2ccccc2F)CC1`?
UCH37 DUB inh: -0.2; Vif TR-FRET: -1.5%; RanGTP-Impb inh: inconclusive; FGF22 binding: inactive; HNF4A DNA FP: 0.6; E coli growth: 0.66; AF4-AF9 inh: -4.5

What do the screens show for `Cn1c(=O)c2c(nc(NCc3ccc4c(c3)OCO4)n2Cc2ccc(F)cc2)n(C)c1=O`?
UCH37 DUB inh: 2.6; Vif TR-FRET: 3.6%&-5.0%; RanGTP-Impb inh: 5.6; HNF4A DNA FP: 0.4; E coli growth: 0.729

What do the screens show for `COc1ccccc1C1CC(c2ccc(Br)cc2)=NN1C(=O)c1cccnc1` (stereo not drawn)?
UCH37 DUB inh: 2.3; RanGTP-Impb inh: 3.6; HNF4A DNA FP: 1.5; E coli growth: 0.735

What do the screens show for `O=c1/c(=C\c2ccc(F)cc2)sc2n1CCCN=2`?
Vif TR-FRET: -4.4%; RanGTP-Impb inh: 3.4; FGF22 binding: inactive; HNF4A DNA FP: -3.0; AF4-AF9 inh: 3.3

Results for Cc1ccccc1OCCCCc1c(C)n[nH]c1C ?
UCH37 DUB inh: 3.6; Vif TR-FRET: 1.4%; RanGTP-Impb inh: 3.3; FGF22 binding: inactive; HNF4A DNA FP: 2.6; E coli growth: 0.657; AF4-AF9 inh: -17.3

How did C=CCN(CC(=O)NC1CCS(=O)(=O)C1)S(=O)(=O)c1ccccc1C(F)(F)F (stereo not drawn) do in these assays?
UCH37 DUB inh: 1.1; RanGTP-Impb inh: 1.0; FGF22 binding: inactive; HNF4A DNA FP: 3.3; E coli growth: 0.656; AF4-AF9 inh: -14.1

Results for COCc1nnc(NC(=O)CC(c2ccccc2)c2ccccc2)s1 ?
UCH37 DUB inh: -0.8; Vif TR-FRET: -2.1%; RanGTP-Impb inh: -7.4; HNF4A DNA FP: -0.8; E coli growth: 0.762

Results for CCCOC(=O)C1=C(C)NC2=C(C(=O)CCC2)C1c1cc(OC)ccc1OC (stereo not drawn) ?
UCH37 DUB inh: -4.4; Vif TR-FRET: 32.4%; RanGTP-Impb inh: 4.1; HNF4A DNA FP: -0.2; E coli growth: 0.67

What do the screens show for `COc1ccccc1-c1coc2cc(OCC(=O)OCc3ccccc3)ccc2c1=O`?
UCH37 DUB inh: 6.8; Vif TR-FRET: 8.8%; RanGTP-Impb inh: 1.6; FGF22 binding: inactive; HNF4A DNA FP: -2.6; E coli growth: 0.73; AF4-AF9 inh: 0.1

How did COc1ccc(/C=C2\SC(=S)N(CC3CCCO3)C2=O)cc1 (stereo not drawn) do in these assays?
UCH37 DUB inh: 6.5; Vif TR-FRET: 5.3%; RanGTP-Impb inh: inconclusive; FGF22 binding: inactive; HNF4A DNA FP: -1.3; E coli growth: 0.683; AF4-AF9 inh: 7.2

Only part of the results is shown (hit frequency here may not be typical).
